Screens: PubChem BioAssay, several laboratories
ALR inh – human ALR oxidase inhibition via reduced H2O2; P55789; purified ALR, DTT oxidation, H2O2 HRP-luminol luminescence; actives 3.8% (n = 290,000); AID 485317; inhibition, % (no concentration beside the values);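 active = mean and each replicate at 75% or more; inconclusive = only one of the two met; inactive = neither met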;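 also: stock transfer was 7.5 nL into about 7.5 µL; 0% = neutral wells and 100% = wells with inactivated enzyme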
Target sequence (P55789 whole entry, looked up): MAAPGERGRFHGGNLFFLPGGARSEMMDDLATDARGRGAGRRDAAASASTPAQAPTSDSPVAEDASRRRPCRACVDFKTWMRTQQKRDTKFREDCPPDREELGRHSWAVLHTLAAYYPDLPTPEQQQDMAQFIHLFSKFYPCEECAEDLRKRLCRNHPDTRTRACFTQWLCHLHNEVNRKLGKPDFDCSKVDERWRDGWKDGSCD
HNF4A DNA FP – change in binding of human HNF4 alpha to DNA | HNF4a-FITC DNA binding, fluorescence polarization, 1 h | activity change, % at 10 µM | actives 0.3% (n = 360,000) | AID 1224865; in the data active = activity change above about 30%, passing the limit was not always enough;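 also: controls were the assay level and a saturating level of protein; the project sought stronger binding though the title names inhibitors; some compounds called inactive have numbers as strong as hits; positive values seem to mean higher polarization but the record does not say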
Target sequence (P41235 whole entry, looked up): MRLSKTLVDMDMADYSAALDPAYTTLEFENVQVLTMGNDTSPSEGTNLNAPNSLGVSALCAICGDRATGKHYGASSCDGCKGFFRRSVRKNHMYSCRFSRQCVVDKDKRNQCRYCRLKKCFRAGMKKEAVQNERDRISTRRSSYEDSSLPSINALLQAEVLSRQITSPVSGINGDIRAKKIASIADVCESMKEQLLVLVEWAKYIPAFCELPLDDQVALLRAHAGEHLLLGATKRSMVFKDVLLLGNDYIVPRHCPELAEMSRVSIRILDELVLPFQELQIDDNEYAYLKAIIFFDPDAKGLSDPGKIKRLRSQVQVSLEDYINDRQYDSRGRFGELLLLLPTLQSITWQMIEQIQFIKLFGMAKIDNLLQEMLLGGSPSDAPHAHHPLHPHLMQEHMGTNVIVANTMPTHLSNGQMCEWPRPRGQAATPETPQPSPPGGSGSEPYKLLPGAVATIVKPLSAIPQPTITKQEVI
Vif TR-FRET – HIV-1 Vif–A3G interaction blockers – biochemical, TR-FRET, GST-Vif 1-94, biotin-A3G peptide, dose response retest, primary screen (AID 1117319) | actives 0.57% (n = 260,000) | inhibition, %, or IC50 in µM where a hit was titrated | TR-FRET GST-Vif / biotin-A3G peptide binding; higher % means a stronger effect; test concentration not given here; strong numbers were not always called active;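 active = above the screen mean plus three standard deviations and confirmed in dose response; inconclusive = results disagree or hit not tested in dose response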;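 also: Vif residues 1-94 fused to GST binding biotinylated APOBEC3G peptide 110-148; 0% = full assay without inhibitor and 100% = GST in place of GST-Vif; retest series ran down from 100 µM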
E coli growth – E. coli growth inhibition; actives 0.21% (n = 330,000); OD600 absorbance (concentration not given with the values); Escherichia coli growth, OD600, 23 h; stronger effect = lower value;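 active = OD600 absorbance below the run mean of sample wells minus 3.6 SD, in any replicate, cut at about 0.56 in these data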;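 also: stock transfer was 300 nL into about 60 µL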
MLL AF4-AF9 inh – inhibitors of human MLL-AF4/AF9 interaction; actives 0.47% (n = 350,000); AlphaScreen, biotin-AF4 peptide binding to FLAG-AF9; inhibition, % at 10 µM; P42568;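 active = every replicate reaching a set inhibition limit, whatever the replicate mean, cut at about 25% in these data; inconclusive = mean inhibition reaches that limit but some replicates miss it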;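 also: 0% = plate neutral control median and 100% = total signal loss; the record names both 10 and 1 µM as test concentration; the first replicate is given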
rRNA inh HTS – inhibitors of bacterial rRNA selective over humanized ribosomes. E. coli WT GFP vs humanized-ribosome RFP mutants, fluorescence, 24 h; stronger effect = lower value; DMSO median 0, no signal -100. GFP signal change (wild-type ribosome), % (concentration not given with the values). actives 1.6% (n = 350,000). AID 720706;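 active = significant combined selectivity score with lowered wild-type GFP, culture density cut under 30%, mutant RFP and density less affected; inactive = any of these conditions unmet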; also: one replicate is shown; some compounds called inactive have numbers as strong as hits
FGF22 binding – FGF22 (human) thermal shift binding. actives 1.5% (n = 340,000). calls only at 9.99 µM. recombinant FGF22 thermal shift, SYPRO orange fluorescence; percent of sucrose octasulfate shift, DMSO zero. Q9HCT0. AID 651658;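 active = melting point raised past a set limit in the mean and every replicate; inconclusive = no clear call; three in four hits are not shown here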
Target sequence (Q9HCT0 whole entry, looked up): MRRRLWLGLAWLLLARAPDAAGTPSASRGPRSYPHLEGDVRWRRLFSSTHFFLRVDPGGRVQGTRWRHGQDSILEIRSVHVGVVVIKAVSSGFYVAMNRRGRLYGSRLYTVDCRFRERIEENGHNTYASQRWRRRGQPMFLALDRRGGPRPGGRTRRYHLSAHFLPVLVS
rRNA inh HTS OD600 – further read-out of rRNA inh HTS, marked with its call; OD600 change, %; measured here: OD600 growth;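 optical density of the mix in the first replicate; 0 = DMSO median and -100 = no signal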
rRNA inh HTS RFP – also measured in rRNA inh HTS; calls as there; RFP signal change, %; measured here: RFP humanized mutant strains;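 first replicate; 0 = DMSO median and -100 = no signal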
* marks the source's active call; other numbers are inactive results; i = inactive; ? = inconclusive; nt = no result given; & = joins results of further samples. These rows are one share of the data; count on the stated rates, not on these rows.

SMILES	ALR inh	HNF4A DNA FP	Vif TR-FRET	E coli growth	MLL AF4-AF9 inh	rRNA inh HTS	rRNA inh HTS OD600	rRNA inh HTS RFP	FGF22 binding
O=C(C[C@H]1C[C@H]2c3cc(NC(=O)Nc4ccc(C(F)(F)F)cc4)ccc3O[C@H]2[C@@H](CO)O1)NCCc1ccccc1	nt	nt	nt	nt	-1.9	-4	-3	-7.9	i
CS(=O)(=O)Nc1ccc(C(=O)N2CCCCC2)cc1	-3	3.1	-1%	0.67	4.6	1	7	-3.1	i
Cc1ccc(NC(=O)c2ccc(S(=O)(=O)N3CCC(C)CC3)cc2)cc1	-4	1.4	-4%	0.7	nt	nt	nt	nt	nt
CC1CCCCN1Cc1c(C#N)c2ccccc2n1C (configuration not stated)	-4	-1.5	1%	0.74	nt	nt	nt	nt	nt
CCSc1nnc(NC(=O)C2C3CCC(C3)C2C(=O)O)s1 (configuration not stated)	-3	-0.8	5%	0.68	-1.1	6	9	-1.5	nt
N#Cc1cc(C#N)c(N2CCN(c3ccccn3)CC2)nc1N	8	1.4	-22%	0.66	nt	nt	nt	nt	nt
Cn1c(N)c(C(C[N+](=O)[O-])c2ccccc2Cl)c(=O)n(C)c1=O (configuration not stated)	nt	-0.4	nt	0.65	-1.7	nt	nt	nt	i
O=C(c1ccc(F)cc1)N1CCCCN2[C@H](CO)[C@@H](c3ccc(C#CC4(O)CCCC4)cc3)[C@H]2C1	nt	nt	nt	nt	-0.8	1	3	0.2	i
Cc1ccc(-c2nc3ccccc3[nH]2)cc1NC(=S)NC(=O)c1ccccc1Br	-4	-2.0	?	0.75	nt	nt	nt	nt	nt
Cn1cnc(S(=O)(=O)N[C@@H]2CC[C@@H](CC(=O)NCC3CC3)O[C@@H]2CO)c1	nt	nt	nt	nt	-0.3	1	-1	-2.3	i
CCCCOc1ccc(N(CC(=O)NC(C)(C)C)C(=O)CCC(=O)Nc2nccs2)cc1	-7	-2.4	2%	0.69	-1.4	1	5	0.4	i
O=S1(=O)CC(N2CCSCC2)CN1Cc1cn(Cc2ccc(C(F)(F)F)cc2)nn1 (configuration not stated)	nt	-2.6	nt	nt	-1.6	0	10	1.0	i
COC(=O)[C@]12CCCCC=C1N(Cc1cccc3ccccc13)C(=O)[C@H](CC(=O)NCCCN1CCCC1=O)C2	nt	-0.8	nt	nt	1.6	-11	-33	3.3	i
Cn1c(CSCc2ccccc2)nnc1SCC(=O)Nc1nccs1	-13	-3.1	-3%	0.71	nt	nt	nt	nt	nt
Cc1ccc2c(c1)N(Cc1cccc(F)c1)C(=O)C(C)O2 (configuration not stated)	7	-1.3	2%	0.65	-2.1	-4	0	-2.1	i
C[C@@H]1CCCCO[C@H](CN(C)C(=O)Cc2ccccc2)[C@H](C)CN([C@@H](C)CO)C(=O)c2cc(NC(=O)Nc3ccc(F)cc3)ccc2O1	nt	-3.9	1%	nt	1.2&4.4	0	2	-1.1	i
COc1ccccc1-c1cnc2c(c1)C(=O)N([C@H](C)CO)C[C@@H](C)[C@@H](CN(C)CC1CCOCC1)O2	nt	nt	nt	nt	-3.4	2	10	-1.4	i
CCOC(=O)COc1cccc(C2NC(=O)c3ccccc3O2)c1 (configuration not stated)	nt	-4.4	nt	0.64	0.7	7	8	0.0	i
O=C(C[C@@H]1CC[C@H]2[C@@H](COC[C@H](O)CN2Cc2cccc(F)c2)O1)NCC1CCCCC1	nt	nt	nt	nt	1.6	0	0	-0.2	i
Cc1ccc(Nc2nc(Cl)c(C=O)s2)cc1	6	30	-23%	0.68	-4.5	12	2	1.2	i

Fetched by structure from above (2):
SMILES	ALR inh	HNF4A DNA FP	Vif TR-FRET	E coli growth	MLL AF4-AF9 inh	rRNA inh HTS	rRNA inh HTS OD600	rRNA inh HTS RFP	FGF22 binding
Cc1ccc(Nc2nc(Cl)c(C=O)s2)cc1	6	30	-23%	0.68	-4.5	12	2	1.2	i
O=C(C[C@@H]1CC[C@H]2[C@@H](COC[C@H](O)CN2Cc2cccc(F)c2)O1)NCC1CCCCC1	nt	nt	nt	nt	1.6	0	0	-0.2	i

(next part)
SMILES	ALR inh	HNF4A DNA FP	Vif TR-FRET	E coli growth	MLL AF4-AF9 inh	rRNA inh HTS	rRNA inh HTS OD600	rRNA inh HTS RFP	FGF22 binding
COc1ccc(NC(=O)N[C@@H]2CC[C@@H](CC(=O)NC3CCC3)O[C@H]2CO)cc1	nt	nt	nt	nt	-5.4	1	0	-2.7	i
Cc1cccc(OCCn2c(-c3ccco3)nc3ccccc32)c1	12	3.0	-3%	0.69	nt	nt	nt	nt	nt
CCCC(=O)Nc1ccc2c(c1)Cc1ccccc1-2	-3	-2.3	nt	0.7	-5.1	6	7	-2.3	i
CCOC(=O)N1CCN(S(=O)(=O)c2ccc(C(=O)N(CCCN(C)C)c3nc4ccc(CC)cc4s3)cc2)CC1	-1	2.6	nt	0.69	5.9	1	1	2.7	i
COc1cccc(C(=O)OCCN2C(=O)c3ccccc3C2=O)c1OC	24	4.5	4%	0.7	nt	nt	nt	nt	nt
CC(C)(C)OC(=O)n1cc(/C=N/NC(=O)c2ccco2)c2ccccc21	-6	-3.2	nt	nt	2.9	-2	11	-0.7	i
O=C1N/C(=N\N=C\c2cccs2)SC1Cc1ccc(Cl)cc1 (configuration not stated)	-19	2.4	8%	nt	-16	nt	nt	nt	i
O=C(C1CCC1)N1CCCCN2[C@H](CO)[C@@H](c3ccc(C#CC4(O)CCCC4)cc3)[C@H]2C1	nt	nt	nt	nt	5.8	3	-2	-0.3	i
Cc1ccc(S(=O)(=O)N(C)C)cc1NC(=O)c1cc(-c2ccco2)nc2ccccc12	-4	-5.5	nt	0.72	nt	nt	nt	nt	nt
COc1ccc(OC)c(CNC(=O)C2CCN(S(C)(=O)=O)CC2)c1	-3	-0.9	10%	0.66	-0.8	8	10	5.2	i
Cn1c(Cn2cnc([N+](=O)[O-])n2)nnc1SCC(=O)Nc1ccccc1	-27	-0.9	-2%	nt	-13	13	4	-8.1	i
Cc1ccccc1NC(=O)CSc1nc2c(c(=O)n(C)c(=O)n2C)n1C	-5	-1.4	nt	0.69	-5.6	0	4	-1.5	i
CC(C)CC#Cc1ccc2c(c1)O[C@H](CN(C)Cc1cccc(F)c1)[C@@H](C)CN([C@@H](C)CO)S2(=O)=O	nt	nt	nt	nt	0.5	4	14	-2.7	i
COc1ccc(NC(=O)Nc2ccc3c(c2)C(=O)N([C@H](C)CO)C[C@@H](C)[C@H](CN(C)Cc2ccncc2)OCCCC[C@@H](C)O3)cc1	nt	nt	nt	nt	7.7	-1	-5	2.6	i
Cc1ccc(C(C)C)c(Oc2cnccn2)c1	-5	20	-2%	0.66	1.0	9	4	-1.8	i
COc1cccc(CNC(=O)C2CCC(CNS(=O)(=O)c3cccc4cccnc34)CC2)c1 (configuration not stated)	-7	3.3	nt	0.71	1.1	11	3	1.4	i
COC(=O)c1ccc(NC(=O)c2cccc(C)c2[N+](=O)[O-])cc1	2	5.0	-2%	0.72	0.5	-22*	-17*	-1.4*	i
COC(=O)c1[nH]c2cccc(OC)c2c1NC(=O)CCN1CCC(C(N)=O)CC1	-6	nt	16%	0.74	nt	nt	nt	nt	nt
COc1ccc(-c2cn(-c3cccc(C)c3)c(=O)[nH]2)cc1OC	-26	2.8	nt	0.78	10	7	1	-0.5	i
Clc1ccc2oc3c(Cl)ncnc3c2c1	0	-0.1	?	nt	-2.4	-2	-8	-1.9	i
COc1ccc(-n2ncc3c(=O)n(CC(=O)Nc4ccc5c(c4)OCCO5)cnc32)cc1	nt	1.8	3%	0.69	-1.0	4	9	-1.3	i
COc1ccc(-n2nnnc2SCc2nc3ccccc3s2)cc1	93*	3.0	-6%	0.73	nt	nt	nt	nt	nt
C/C(=N\Nc1ccc([N+](=O)[O-])cc1)c1ccc(C#N)cc1	nt	8.6	7%	nt	-2.9	-2	15	-0.7	i
Cc1cc(C(=O)NCc2ccccc2F)c2ccccc2n1	-6	1.5	0%	0.68	-0.8	1	5	-2.9	i
CN(CCNC(=O)C1CCN(c2ncnc3c2nc2n3CCCCC2)CC1)Cc1ccccc1	4	5.0	nt	0.6	-4.2	1	-3	2.2	i
C[C@@H]1CN([C@H](C)CO)C(=O)c2cc(NS(C)(=O)=O)ccc2O[C@H]1CN(C)S(=O)(=O)c1cccs1	nt	nt	nt	nt	-0.9	1	13	0.5	i
COc1cc(OC)c2c(-c3ccccc3)cc(=O)oc2c1	-5	-3.5	2%	0.75	-18	nt	nt	nt	i
Cc1sc2ncnc(NCc3ccccc3)c2c1C	-4	4.3	13%	0.72	nt	nt	nt	nt	nt
CCC(=O)Nc1ccc(NC(=O)c2ccccc2)nc1	-14	1.6	4%	0.67	-0.8	4	6	0.1	i
O=C(NCC[C@@H]1CC[C@H](NC(=O)C2CCC2)[C@@H](CO)O1)c1ccc(F)cc1	nt	nt	nt	nt	-1.9	3	7	-2.4	i
O=C(O)c1cc(S(=O)(=O)N2CCCC2)ccc1Br	-7	1.2	-5%	0.7	nt	nt	nt	nt	nt
Cc1ccc2c(COC(=O)c3ccc(C)c(C)c3)cc(=O)oc2c1	-2	3.4	nt	0.7	-0.3	4	10	-2.5	i
CC(C)NC(=O)Nc1ccc2c(c1)CC(=O)N([C@H](C)CO)C[C@@H](C)[C@@H](CN(C)C(=O)Nc1ccccc1)O2	nt	nt	nt	nt	-3.5	1	2	-2.1	i
Cc1nn(-c2ccccc2)c(N)c1N=Nc1ccccc1	-2	2.0	?	0.63	31*	4	17	11	nt
Cc1ccc(C)c(SCC(=O)NC(=O)NCc2ccccc2)c1	-2	-1.0	-3%	0.67	nt	nt	nt	nt	nt
CNc1nc(Nc2ccc(C)cc2C)c2sccc2n1	nt	-1.1	nt	nt	3.4	5	-13	-5.8	i
COc1ccccc1CN(Cc1nc2ccccc2c(=O)[nH]1)C(=O)Nc1cccc(C)c1	-3	-1.8	0%	0.64	nt	nt	nt	nt	nt
COc1cc(/C(C#N)=C/c2cccc3ccccc23)c([N+](=O)[O-])cc1OC	-9	1.6	-2%	0.74	-0.2	nt	nt	nt	i
COCCNC(=O)CN(Cc1ccc(Cl)cc1)S(C)(=O)=O	-1	-2.1	29%	0.76	nt	nt	nt	nt	nt
Cc1ncc(S(=O)(=O)c2ccccc2)c(-c2ccccc2)n1	-1	-2.3	4%	0.69	nt	nt	nt	nt	nt
Cc1cccc(-n2ncc3c2CCCC3NC(=O)C2=CC(=O)CC(C)(C)O2)c1C (configuration not stated)	-3	9.2	0%	0.73	-2.5	-2	2	0.1	i
O=C(NCCC1=CCCCC1)C1CCN(C(=O)c2ccc(Br)cc2)CC1	nt	-1.6	-4%	0.72	-18	-6	-3	-1.4	i
CCSc1nnc(N2C(=O)CC(c3ccsc3)C3=C2CC(C)(C)CC3=O)s1 (configuration not stated)	-5	-0.2	-1%&-10%	0.75	-1.3	-4	-5	-1.1	i
C[C@@H]1CN([C@H](C)CO)C(=O)Cc2cc(NC(=O)Nc3ccc4c(c3)OCO4)ccc2O[C@@H]1CN(C)CC1CC1	nt	nt	nt	nt	8.5	0	-2	1.0	i
O=[N+]([O-])c1cc(Cl)ccc1N1CCOCC1	-5	0.2	3%	0.65	-0.3	-5	6	2.0	i
CCC1Sc2ccccc2N(CC(=O)NC2CC2)C1=O (configuration not stated)	-3	-3.1	-7%	0.7	-1.2	6	7	0.8	i
COc1ccc(S(=O)(=O)NC2CCCC2)cc1NC(C)=O	2	-2.8	nt	0.66	0.1	3	7	-3.1	i
O=C(CCS(=O)(=O)c1ccc(Br)cc1)N1CCN(c2ccccc2Cl)CC1	-9	2.2	22%	0.66	nt	nt	nt	nt	nt
COc1ccc(OC)c(NC(=O)c2cc3ccccc3o2)c1	-11	1.3	-3%	0.73	nt	nt	nt	nt	nt
